From PubChem BioAssay
ClpP mod: qHTS Assay for Activators of ClpP. 1.9% of 340,000 active. Potency, µM (highest dose often 57.5 µM), without a hit: at the highest dose activity change, negative = active. ATP-dependent Clp protease proteolytic subunit (Bacillus subtilis (strain 168)), P80244. purified B. subtilis ClpP, FRET peptide cleavage, 20 min; active = well fitted falling curve with a large enough effect; inconclusive = small, poorly fitted or top-dose-only effect; inactive = no such curve, though single readings can be large or run the other way; note: the source files actives as falling curves though it sought activators and does not explain the sign; nearly all actives have a fitted effect of over 65% in size; many hits overshoot -100%
Target sequence (P80244 whole entry, looked up): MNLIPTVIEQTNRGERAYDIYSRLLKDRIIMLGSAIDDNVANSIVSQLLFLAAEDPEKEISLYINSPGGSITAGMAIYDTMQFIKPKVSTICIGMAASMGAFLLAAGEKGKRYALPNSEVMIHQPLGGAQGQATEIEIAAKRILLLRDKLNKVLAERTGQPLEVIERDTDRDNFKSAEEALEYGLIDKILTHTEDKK
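Buffer: 100 mM Tris/HCl pH8, 100 mM KCl, 0.05% low protease BSA, 2.5% glycerol, 0.01% Tween-20. ClpP 10 microg/mL final; 20 min RT; delta FRET normalized to ADEP and DMSO controls.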
PINK1 modulator: A Quantitative High throughput Screen to Identify Chemical Modulators of PINK1 Expression; PINK1 immunofluorescence, high-content cytometry, 24 h; Potency, µM (titrated, usually from 76.6 µM), inactives show at the top dose activation (PINK1 increase), usual class: activators; 0.2% of 410,000 active; active = well fitted activation curve with a large enough effect; inconclusive = small, poorly fitted or top-dose-only effect; inactive = flat fitted curve, though single readings scatter; cell line not stated here;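 note: % of control where 0% means no effect; nearly all actives have a fitted effect of over 65% in size; a mitochondrial uncoupler was the plate control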
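Stable cell line treated 24 h with compounds at 5 concentrations (CCCP controls), then fixed and immunostained for PINK1 plus nuclear and cell stains; PINK1 immunofluorescence quantified by laser-scanning microplate cytometry.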
Starred values were filed as active, the others as inactive; u = inconclusive. Potency is the fitted concentration of half-maximal effect. This is a subset; the hit share may differ from the screen's.

Results follow in this order: PINK1 modulator	ClpP mod
O=C(CN1CCN(S(=O)(=O)c2cc(Cl)ccc2Cl)CC1)Nc1cccc(F)c1
  -3.9%	-1.3%
Cc1ccc(-c2cn3c(n2)sc2cc(C(=O)NCCC4=CCCCC4)ccc23)cc1
  0.6%	-19%
Cc1ccc(CNC(=O)c2ccc(CSCc3cccc(C)c3)o2)cc1
  -5.9%	-4.1%
COC(=O)[C@]12CCCCC=C1N(Cc1ccc(Cl)cc1Cl)C(=O)[C@H](CC(=O)NCc1cccc3ccccc13)C2
  0.3%	-14%
COc1cc(NC(=O)Cn2nc3c(cc2=O)CC(C)CC3)cc(OC)c1OC (stereo not given)
  -0.2%	-2.1%
O=C(NC(=O)c1cccc(F)c1)Nc1ccc(-c2cc(C(F)(F)F)nn2-c2ccccc2)cc1
  2.2%	-10%
CCc1cc2c(cc3c(=O)n(CC(=O)NCCc4ccc(OC)cc4OC)nc(CC)n32)s1
  0.3%	-5.3%
COc1ccc(Cc2c(C)nn(-c3nc(C)c(C(=O)Nc4cccc(C(C)=O)c4)s3)c2C)cc1
  -0.2%	-8.0%
CC(C)C[C@H]1CN(CCCC[C@@H]2CNC(=O)C(=O)N2Cc2ccccc2)C(=O)C(=O)N1Cc1ccccc1
  -0.1%	2.5%
COc1ccc(N(C)S(=O)(=O)c2ccc3c(c2)n(C)c(=O)c(=O)n3C)cc1
  -0.8%	0.4%
Cc1nn(CC(=O)NCc2cccc(F)c2)c(=O)c2c(C)n(-c3ccc(Cl)cc3)nc12
  1.1%	u
CCCN(CCC)C(=O)C1CCCN(c2ncnc3onc(-c4ccc(F)cc4)c23)C1 (stereo not given)
  0.5%	0.3%
COc1ccc(S(=O)(=O)c2cn(CC(=O)Nc3ccccc3)c3ccc(Cl)cc3c2=O)cc1
  0.4%	11%
Cc1cc(C)c2c(=O)cc(C(=O)Nc3sc4c(c3C#N)CCCC4)oc2c1
  3.0%	-1.1%
Cc1ccc(C2c3[nH]c4ccccc4c3CCN2C(=O)CSCc2ccc(F)cc2)cc1 (stereo not given)
  0.7%	-0.6%
Cc1cc(C)c2c(=O)nc(SCc3ccccc3C)n(C3CC3)c2n1
  -0.7%	2.3%
COc1cccc(/C=C/c2nc(C#N)c(NC3CCCCC3)o2)c1
  5.4%	3.7%
COc1ccccc1N1CCN(C(c2ccc(Cl)cc2)c2nnc(-c3cccc(F)c3)o2)CC1 (stereo not given)
  1.1%	-5.3%
CC(=O)CC1c2cc(F)ccc2C=C(c2ccsc2)N1c1ccc(C#Cc2cncn2C)cc1 (stereo not given)
  u	4.3%
Oc1ccc(-c2nc3ccccn3c2Nc2ccc3c(c2)OCCO3)cc1
  0.3%	4.1%
CCCCOc1cccc(NC(=O)CSc2nnc(C)s2)c1
  4.7%	-1.9%
O=C1c2ccccc2C(c2nnnn2-c2ccc3c(c2)OCCO3)N1Cc1cccs1 (stereo not given)
  1.0%	-0.5%
COc1ccc(-n2ncc(C(=O)N3CCOCC3)c2C2CCN(C(=O)OC(C)(C)C)CC2)cc1
  0.4%	-2.6%
Cc1ccc2occ(CC(=O)Nc3nnc(C(C)C)s3)c2c1
  -0.7%	-0.4%
O=C(Nc1cccc(C(=O)N2CCN(c3ccc(F)cc3)CC2)c1)c1nsc2ccccc12
  -1.3%	-2.7%
O=C1c2ccccc2C(c2nnnn2Cc2ccccc2)N1CCOc1ccccc1 (stereo not given)
  -0.2%	0.7%
CCOC(=O)c1cc(NC(=O)c2ccc(C)cc2)c(=O)n2c1oc1ccc(Cl)cc12
  -0.8%	-7.9%
Cc1ccc(-c2nc3cc(C)c(Br)c(C)n3c2Cc2ccsc2)cc1
  9.1%	-0.6%
CCOc1ccc(-c2cc(C(=O)N3CCN(c4cc(Cl)ccc4C)CC3)c3ccccc3n2)cc1
  0.1%	-9.5%
COc1ccc(CNC(=O)C(CC(C)C)NS(=O)(=O)c2ccc3c(c2)CCN3C(C)=O)cc1 (stereo not given)
  1.5%	4.7%
CCCN1Cc2cccc(C(=O)Nc3ccccc3F)c2C1=O
  4.3%	1.0%
CC(=O)Nc1ccc(NC(=O)c2ccc(COc3ccc(Cl)cc3Cl)o2)cc1
  7.2%	u
COc1ccccc1NC(=O)C1CCN(c2cnccn2)CC1
  -0.4%	-28%
O=C1c2oc3ccccc3c(=O)c2C(c2ccc(O)cc2)N1Cc1ccc2c(c1)OCO2 (stereo not given)
  0.0%	-2.6%
Cc1ccc(N2CC(c3nnc(Cc4ccccc4Cl)o3)CC2=O)cc1 (stereo not given)
  -1.0%	-1.4%
CCOc1ccccc1NC(=O)C1CCCN(c2ncnc3onc(-c4ccc(F)cc4)c23)C1 (stereo not given)
  1.0%	-2.4%
CN1CCN(C(=O)c2ccc3c(=O)n(Cc4ccc5c(c4)OCO5)c(=S)[nH]c3c2)CC1
  0.9%	1.7%
CC(C)COc1ccc(C(=O)N2CCCCC2CCN2CCOCC2)cc1 (stereo not given)
  0.2%	-0.4%
COc1cc2c(cc1NC(=O)COc1cc(C)cc(C)c1)oc1ccccc12
  -0.2%	u
CCOC(=O)[C@]12CCC=C1N(Cc1ccc(Cl)cc1Cl)C(=O)[C@H](CC(=O)N1CCN(C(=O)c3ccco3)CC1)C2
  1.6%	0.5%
COc1cc(OC)c(NC(=O)C2CCN(S(=O)(=O)c3c(C)noc3/C=C/c3c(C)cc(C)cc3C)CC2)cc1Cl
  0.0%	-0.5%
COc1ccc(Cl)cc1NC(=O)c1sc2nc(-c3ccc(OC)c(OC)c3)ccc2c1N
  2.0%	-22%
COc1ccc(-n2c(SCC(N)=O)nc3c(oc4ccccc43)c2=O)cc1
  0.0%	-1.8%
CC(=O)c1ccc(NC(=O)COc2ccccc2-c2nc(C)no2)cc1
  -0.5%	1.1%
CCOCc1cc(CN2CCN(c3cccc(Cl)c3)CC2)c(O)c2ncccc12
  1.6%	-1.4%
Cc1ccc(N2CC(NC(=O)c3ccc(Br)o3)CC2=O)cc1C (stereo not given)
  0.1%	0.8%
O=C(COc1ccccc1-c1nc(-c2ccccc2)no1)Nc1cccc([N+](=O)[O-])c1
  0.3%	-0.4%
COc1ccc(-c2cn3c(n2)sc2cc(C(=O)Nc4cccc(OC)c4)ccc23)cc1
  18%	4.6%
CCN1Cc2cccc(C(=O)Nc3ccc(F)cc3)c2C1=O
  -3.9%	-2.4%
CCn1c(=O)c(=O)n(CC)c2cc(N3CCCCC3)c(NC(=O)c3cccc(OC)c3)cc21
  1.8%	-15%
COc1ccc(-c2nc3cc(NC(=O)c4cc5ccccc5o4)ccc3o2)cc1
  1.2%	-9.3%
CCc1ccccc1NC(=O)CN(C)S(=O)(=O)c1cccc2nsnc12
  1.2%	-1.0%
O=S(=O)(NCCc1csc2nc(-c3ccccc3)nn12)c1cccs1
  0.1%	1.2%
CC(C)(C)c1ccc(C(=O)NCC(=O)OCc2cc(=O)n3nc(C4CC4)sc3n2)cc1
  0.0%	-5.2%
Cc1cccc(C(=O)N2CCc3cc(CNC(=O)CSc4ccccc4)ccc32)c1
  0.7%	-15%
Nc1c(-c2nc(-c3ccccc3)no2)nnn1CC(=O)Nc1ccccc1
  -0.4%	7.5%
CCc1cccc(NC(=O)Cn2c(C(=O)OC)cc3occc32)c1
  0.2%	-0.9%
COc1ccc(NC(=O)Cn2cc(C(=O)c3ccccc3OC)c(=O)c3ccc(C)nc32)cc1OC
  2.3%	-4.7%
COc1ccc(OC)c(NC(=O)c2nc(SCc3ccc(F)cc3)ncc2Cl)c1
  2.6%	0.8%
COc1cc(OC)cc(C(=O)Nc2ccc3nc(N4CCC(C)CC4)cc(C)c3c2)c1
  2.3%	u

Random excerpt: six compounds from above
Results follow in this order: PINK1 modulator	ClpP mod
CC(=O)c1ccc(NC(=O)COc2ccccc2-c2nc(C)no2)cc1
  -0.5%	1.1%
COc1cc(OC)c(NC(=O)C2CCN(S(=O)(=O)c3c(C)noc3/C=C/c3c(C)cc(C)cc3C)CC2)cc1Cl
  0.0%	-0.5%
CC(C)(C)c1ccc(C(=O)NCC(=O)OCc2cc(=O)n3nc(C4CC4)sc3n2)cc1
  0.0%	-5.2%
O=C1c2oc3ccccc3c(=O)c2C(c2ccc(O)cc2)N1Cc1ccc2c(c1)OCO2 (stereo not given)
  0.0%	-2.6%
CC(=O)Nc1ccc(NC(=O)c2ccc(COc3ccc(Cl)cc3Cl)o2)cc1
  7.2%	u
COc1ccc(NC(=O)Cn2cc(C(=O)c3ccccc3OC)c(=O)c3ccc(C)nc32)cc1OC
  2.3%	-4.7%

Next part:
Results follow in this order: PINK1 modulator	ClpP mod
COCCCNC(=O)c1c(NC(=O)Cc2coc3cc(C)cc(C)c23)sc2c1CCCC2
  0.2%	u
O=C(Cn1c(=O)n(Cc2nc(-c3ccccc3)no2)c(=O)c2ccccc21)Nc1cccc(C(F)(F)F)c1
  -0.1%	-10%
O=c1cc(-c2ccc(F)cc2)nc(SCc2nc(-c3ccc(Cl)cc3)no2)[nH]1
  0.5%	-1.5%
O=C(CSc1ncc(-c2ccccc2)[nH]1)Nc1ccc(Cl)cc1
  1.8%	-0.1%
CCOc1cccc(C(=O)N(Cc2ccc(C(C)C)cc2)C2CCS(=O)(=O)C2)c1 (stereo not given)
  -0.4%	1.4%
COc1ccc2c(c1)cc(CNc1ccc(OC)c(OC)c1)c(=O)n2CC(=O)Nc1ccc(F)cc1
  0.4%	-3.2%
COc1ccc(NC(=O)c2cc(=O)c3ccc(C)c(C)c3o2)cc1Cl
  12%	1.7%
Cc1ccc(Cl)cc1N1CCN(C(=O)c2ccc3c(Cl)c4c(nc3c2)CCCC4)CC1
  3.9%	-1.5%
Cc1ccc2c(C(=O)CNC3=NCCS3)c(C)[nH]c2c1
  0.5%	-6.2%
COc1ccc(-c2cc(-c3ccccc3)c(C#N)c(SCC(O)CS(=O)(=O)Cc3ccccc3)n2)cc1 (stereo not given)
  -0.3%	4.4%
COc1cc(OC)c(NC(=O)NC(C)c2c(-n3cccc3)sc(C)c2C)cc1Cl (stereo not given)
  2.0%	-4.2%
CC1CCC(NC(=O)c2ccc(CS(=O)(=O)c3ccc(Cl)cc3)o2)CC1 (stereo not given)
  -1.2%	1.7%
Cc1cc(C)cc(NC(=O)N2CCC3(CC2)Oc2ccccc2C(=O)N3Cc2ccccc2F)c1
  0.1%	-3.6%
O=C(CSc1nc2c([nH]c3ccccc32)c(=O)n1-c1ccccc1)Nc1ccc2c(c1)OCO2
  -0.4%	4.3%
CCOc1ccc(-c2nc3c(C#N)c[nH]n3c2NC2CCCCC2)cc1
  -0.4%	0.9%
CCn1c(C(=O)N2CCC(C(=O)N3CCN(c4cc(C)ccc4C)CC3)CC2)cc2sccc21
  -1.1%	-2.7%
Cc1cccc(CNC(=O)Cc2csc3ccccc23)c1
  1.5%	1.1%
Cc1cccc(OCC(=O)Nc2cccc(C(=O)OCc3cc(=O)n4c(C)csc4n3)c2)c1
  2.8%	-1.6%
Cc1ccc(-c2nn3c(=O)cc(CN4CCN(S(=O)(=O)c5ccc(Cl)cc5)CC4)nc3s2)cc1
  -0.5%	-1.9%
COc1ccc(-c2cc(C(F)(F)F)n3ncc(-c4ccccc4)c3n2)cc1
  2.3%	-0.6%
COc1ccc(Cl)cc1NC(=O)c1cc2nc(-c3ccc4c(c3)OCO4)cc(C(F)(F)F)n2n1
  1.5%	-2.2%
COc1ccc(CCNC(=O)c2c(O)nc3ccccn3c2=O)cc1OC
  -0.4%	-18%
O=C(Nc1ccc(Cl)cc1)c1ccc(-n2cnnc2)cc1
  2.4%	-3.1%
O=c1cc(COc2ccc(Cl)cc2Cl)nc2scc(-c3ccccc3)n12
  6.2%	-3.7%
Cc1ccc2nc(-c3ccc(NC(=O)C(F)(F)F)cc3)sc2c1
  -4.0%	3.9%
O=C(CCn1c(=O)c2cccn2c2ccc(F)cc21)NCCc1ccccc1Cl
  0.0%	-20%
COc1ccc2cc3[n+](cc2c1O)CCc1cc2c(cc1-3)OCO2
  0.2%	4.8%
O=C(CNC(=O)c1ccc(F)cc1)OCc1cc(=O)n2nc(C3CCCCC3)sc2n1
  -0.1%	-0.7%
Cc1ccc(Nc2nnc(-c3ccc(C)c(S(N)(=O)=O)c3)c3ccccc23)cc1
  -1.2%	-6.6%
COc1ccc(NC(=O)CSc2nc(-c3ccc(OC)cc3)[nH]c2-c2ccc(OC)cc2)cc1
  3.3%	-13%
COc1ccc(CCNC(=O)Cn2c(C)c3cnn(-c4ccccc4)c(=O)c3c2C)cc1OC
  0.1%	-0.4%
Cc1ccccc1S(=O)(=O)N1CCN(c2nc(-c3cccs3)nc3ccccc23)CC1
  0.2%	-9.8%
COc1ccc(CCNC(=O)c2cc(-c3ccc(C)cc3)nc3n[nH]c(-c4ccc(F)cc4)c23)cc1OC
  1.1%	-1.6%
CC1=C(C(=O)Nc2cccnc2)C(c2ccc(F)cc2)n2nc(-c3cccc(C)c3)nc2N1 (stereo not given)
  5.9%	-7.8%
COc1ccccc1/C=C/c1nc(C#N)c(NCC(C)C)o1
  6.1%	4.3%
